Assay outcomes deposited in PubChem by National Center for Advancing Translational Sciences (NCATS).
Six1-Eya2 blk – Six1/Eya2 interaction inhibition | Q15475+O00167 | activity change, % (test concentration not listed) | 0.56% of 360,000 active | AlphaScreen GST-Six1/His-Eya2 binding, biochemical; stronger effect = lower value; control for the full effect not named in the record; in the data active = activity change below about -65%; inconclusive = about -30% to -65%; inactive = above about -30%; also: % is scaled to controls: 0 for no effect and ±100 for the full control effect; compound concentration not given in the record
Target sequence (O00167 whole entry, looked up): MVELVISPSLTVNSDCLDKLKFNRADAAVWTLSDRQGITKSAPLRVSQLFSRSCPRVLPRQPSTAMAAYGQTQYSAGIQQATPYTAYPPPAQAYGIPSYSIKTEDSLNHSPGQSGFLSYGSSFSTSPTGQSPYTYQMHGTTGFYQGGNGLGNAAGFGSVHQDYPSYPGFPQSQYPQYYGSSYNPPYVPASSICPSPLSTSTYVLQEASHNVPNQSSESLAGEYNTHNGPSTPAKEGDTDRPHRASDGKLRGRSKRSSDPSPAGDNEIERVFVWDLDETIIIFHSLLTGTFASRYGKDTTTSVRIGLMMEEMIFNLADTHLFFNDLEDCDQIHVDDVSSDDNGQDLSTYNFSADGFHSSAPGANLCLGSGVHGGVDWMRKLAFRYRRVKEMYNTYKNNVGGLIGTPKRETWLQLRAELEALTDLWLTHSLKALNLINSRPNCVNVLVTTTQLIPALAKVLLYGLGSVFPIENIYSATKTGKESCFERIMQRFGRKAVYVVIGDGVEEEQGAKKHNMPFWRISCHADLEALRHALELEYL
Target sequence (Q15475 whole entry, looked up): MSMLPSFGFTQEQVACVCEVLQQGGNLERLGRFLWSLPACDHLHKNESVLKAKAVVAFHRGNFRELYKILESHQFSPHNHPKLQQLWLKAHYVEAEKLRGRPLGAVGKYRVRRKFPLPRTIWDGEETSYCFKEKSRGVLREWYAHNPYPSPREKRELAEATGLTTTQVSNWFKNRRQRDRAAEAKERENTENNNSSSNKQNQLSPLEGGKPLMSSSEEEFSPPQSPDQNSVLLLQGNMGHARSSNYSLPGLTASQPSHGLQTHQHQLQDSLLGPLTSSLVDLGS
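Six1/Eya2 binding was read as AlphaScreen signal after compounds were pinned into GST-Six1 plus His-tagged Eya2 (5X stock 250/500 nM) in pH 8.0 Tris/NaCl/TCEP buffer, beads added, then incubated 1 h, 37 C, dark.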
CtBP-E1A inh – blocks the CtBP interaction with E1A; 0.49% of 340,000 active; activity change, % (test concentration not listed); AID 651724; AlphaScreen GST-E1A/His-CtBP binding, 1536-well; stronger effect = lower value; control for the full effect not named in the record; in the data active means activity change below about -65%; inconclusive means about -30% to -65%; inactive means above about -30%; also: % is scaled to controls: 0 for no effect and ±100 for the full control effect; compound concentration not given in the record
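Homogeneous bead-based format: GST-tagged E1A captured on glutathione donor beads, His-tagged CtBP on nickel acceptor beads; compounds precede bead addition by 2 h at 37 °C.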
TRPML1 agonist – agonists of human TRPML1 channel; Q9GZU1; TRPML1-expressing cells, Ca2+ dye fluorescence, FDSS; host cell line not named in the record; reference of the full effect not given here; activation, % (test concentration not listed); 0.12% of 410,000 active; AID 624414; in the data active = activation above about 50%; inconclusive = about 30% to 50%; inactive = below about 30%; also: 0% is about no effect; the text of the record puts the active cut at 80%
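In this qHTS format, compounds were pin-transferred onto Ca8-dye-loaded TRPML1-DL cells induced with Tet overnight, and intracellular Ca2+ fluorescence was recorded kinetically for 110 s after a 10 s baseline. A subsequent 4uM final 54-4 (EC80) addition followed by a second 110 s read served as the antagonist phase.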
TRPV1 potentiator – potentiators of human vanilloid receptor 1 (TRPV1); Q8NER1; TRPV1-expressing cells, Fluo-8 calcium influx, capsaicin EC20 potentiation; host cell line not named in the record; control for the full effect not named in the record; potentiation, % at 8.33 µM; 0.02% of 320,000 active; AID 540277; active means potentiation above 80%; inconclusive means 30% to 80%; inactive means below 30%; also: 0% is about no effect
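Cells expressing TRPV1 were dye-loaded with Fluo-8 and read kinetically: 10 s baseline, 3 min after compound (agonist portion), then 2 min after EC20 capsaicin (allosteric enhancer portion). Calcium-bound dye fluorescence at 480/520 nm.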
D2 PAM – potentiates the human D2 dopamine receptor allosterically | 0.23% of 360,000 active | potentiation, % (no concentration beside the values) | DiscoveRx D2 beta-arrestin cells, luminescence, 90 min; 100% = 57 uM dopamine signal; active = potentiation of 50% or more; inconclusive = 30% to 50%; inactive = 30% or less;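 also: compound concentration not given in the record; tested on top of an EC20 dose of dopamine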
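D2 cells co-treated with compound plus 50 nM dopamine (EC20) for 90 min at 37 deg C to detect potentiation. Beta-arrestin recruitment was read as enzyme-fragment luminescence after 1 h at ambient temperature. Full response was set by 57 uM dopamine.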
TRPML1 blocker – inhibitors of human TRPML1 channel | Q9GZU1 | TRPML1-inducible cells, Ca2+ dye fluorescence, FDSS; stronger effect = lower value; inhibition of EC80 agonist-evoked calcium signal | activity change, negative = inhibition, % (no concentration beside the values) | 0.02% of 390,000 active; in the data active means activity change below about -50%; inconclusive means about -30% to -50%; inactive means above about -30%;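 also: stimulus is agonist 54-4 at its EC80 concentration; % is scaled to controls: 0 for no effect and ±100 for the full control effect; compound concentration not given in the record; the text of the record puts the active cut at -80%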
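Calcium fluorescence in TRPML1-DL cells induced overnight with Tet: a 110 s read after compound pin addition, then a 110 s antagonist read after challenge with 54-4 at 4 uM final (EC80).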
An asterisk follows results filed as active; ? = inconclusive; nt = no result given; & = joins results of further samples.

Structure,D2 PAM,CtBP-E1A inh,TRPML1 blocker,TRPV1 potentiator,TRPML1 agonist,Six1-Eya2 blk
CC(C)=CCC/C(C)=C/CNC(=O)CC1C[C@H](C(=O)N2CCOCC2)[C@@]2(C)c3[nH]c4ccccc4c3CCN2C1=O (stereo partly drawn),nt,3.5,20.9,nt,-0.5,-11.6
Cc1ccc2c(c1)nnn2C1CCN(CC(=O)NCCc2nc3ccccc3[nH]2)CC1,-32.2,-8.8,21.9,-7.7,0.9,-0.7
Cc1c(C(=O)N2CCCC2)oc2c1-c1[nH]ncc1CC2,4.7,-0.5,2.2,10.1,-0.5,0.7
COCc1ccc(C(=O)N2CCCC(C(=O)c3ccc(SC)cc3)C2)s1 (stereo not drawn),-12.0,-2.4,36.8,-19.6,1.7,0.6
COc1ccc2oc(=Nc3cccc(F)c3)c(C(N)=O)cc2c1,-4.3,-5.7,37.4,-3.1,-0.7,-12.6
CCC(C)(C(=O)NC1CCCCC1)N(C(=O)c1ccccn1)c1ccc(C)cc1 (stereo not drawn),2.3,2.3,4.2,0.8,-0.5,-1.9
O=C(CN1CCc2cc3c(cc2C1)OCCCO3)Nc1c(F)cccc1F,-25.4,-17.6,-2.8,?,-1.0,1.8
O=C(Nc1ccccc1)Oc1ccccc1N1CCOCC1,-4.8,-10.1,38.2,nt,1.1,3.8
O=C(Nc1ccc(N2CCOCC2)cc1)c1ccc(Cl)c(S(=O)(=O)N2CCCC2)c1,5.8,nt,12.8,-24.1,-1.0,-14.2
Cc1c(NC(=O)CN2C(=O)NC3(CCC(C)CC3)C2=O)c(=O)n(-c2ccccc2)n1C (stereo not drawn),-1.1,9.3,-4.8,-1.4,-0.7,20.7
COc1cc(-c2nnc(-c3ccco3)o2)ccc1OCc1ccccc1,-17.6,-10.1,15.1,2.9,0.4,-12.0
COc1ccc(C(=O)N(C)CC(O)c2ccccc2)cc1OC1CCN(C(C)=O)CC1 (stereo not drawn),9.8,5.1,-4.4,-6.6,-0.9,0.3
Cc1cc(N2CCN(C)CC2)nc2ccc(NC(=S)N3CCC4(CC3)OCCO4)cc12,-6.7,-0.5,-10.1,-1.1,-0.7,12.8
Cc1csc2c(=O)sc(NC(=O)c3cccs3)nc12,-5.2,-4.1,9.5,28.3,0.7,-7.3
CC(=O)Oc1ccc(-c2cccc(C(=O)NCCCO)c2)cc1,-22.6,0.3,3.7,12.0,0.7,7.2
O=C(COC(=O)c1sc2cc(F)ccc2c1Cl)Nc1ncc(Cl)cc1Cl,1.7,-5.3,1.4,1.2,0.1,8.0
CCOC(=O)C1CCN(c2nc3c(C)cccn3c(=O)c2/C=C(\C#N)S(=O)(=O)c2ccccc2)CC1,-10.7,-21.7,3.1,-3.3,0.4,-22.6
CCCCOC(=O)C1=C(C)Nc2ncnn2C1c1cc(OC)ccc1OC (stereo not drawn),-48.7,0.8,11.3,-10.4,-0.5,2.0
CCOC(=O)C(Cc1c(F)cccc1Cl)c1ccno1 (stereo not drawn),-0.8,10.8,-9.0,2.5,0.6,12.0
C=CCn1cccc(/C=C/C(=O)c2ccc(C(C)(C)C)cc2)c1=S,-27.3,-3.2,43.8,-6.3,-0.1,3.5
COc1ccc(-c2noc(CCC(=O)N3CCN(c4ccccc4Cl)CC3)n2)cc1,-1.7,0.1,19.6,nt,-0.9,-0.1
Cc1cc(S(=O)(=O)N2CCN(Cc3ccc4c(c3)OCO4)CC2)cc(C)c1N1CCCC1=O,-1.3,2.9,-6.2,-7.7,1.0,-6.6
COC(=O)c1ccc(C23CC4(C2)[C@H](CN(CC2CCCCC2)[C@@H]4c2ccccc2)C3c2ccccc2)cc1 (stereo partly drawn),-20.1,-0.7,11.9,-7.9,-0.4,-7.1
O=c1[nH][nH]c2c1[C@H](c1ccc(Cl)cc1)O[C@H](C1CC1)C2,nt,-12.3,nt,nt,0.0,6.1
O=S(=O)(O)c1cnccc1Nc1cccc(C(F)(F)F)c1,-2.1,-9.1,-9.0,nt,-0.5,-6.4
O=S(=O)(c1ccc(N2CCN(CCO)CC2)nc1)N1CCCCC1,-11.7,2.9,-2.8,13.4,0.1,3.8
O=C(NCC1CCOCC1)C1CCC(=O)N(Cc2cccc(C(F)(F)F)c2)C1 (stereo not drawn),-1.8,3.5,-7.3,?,-0.5,6.1
CN(C)c1ccc(CNS(=O)(=O)c2ccc3c(c2)NC(=O)CS3)cc1,-8.2,-21.0,2.4,-13.8,-1.2,-11.3
CC(C)(C)S(=O)N1Cc2cc(C(=O)N3CCc4ccccc4C3)nc(-c3cccc(-c4cccnc4)c3)c2[C@@H]1CCO (stereo partly drawn),-2.3,0.7,-1.5,nt,0.2,-13.0
CC(C)COc1cccc(C(=O)N2CCN(C(=O)c3ccco3)CC2)c1,-0.1,4.3,-10.1,29.5,-0.6,-1.2
CNC(=O)C1(C)CCN1C(=O)c1ccccc1CCc1ccccc1 (stereo not drawn),-5.2,-4.8,nt,nt,-0.5,4.8
Cc1ccc(C)c(C(=O)CSc2n[nH]c(C)n2)c1,-2.7,12.1,-6.5,9.2,0.7,2.8
COc1cc(NC(=O)NCCN2CCN(c3ccccc3)CC2)cc(OC)c1OC,-9.5,0.0,36.8&-4.6,?,-0.6&2.1,-29.6
O=C(CNC(=O)c1ccccc1Cl)OC1CCOC1=O (stereo not drawn),4.0,-4.4,12.0,-5.5,1.3,6.6
C=CCc1cccc(CNc2nc3ccccc3n2C)c1O,-3.0,-1.0,40.5,-35.9,2.3,-0.4
O=C(NCc1ccco1)c1cccc(NC(=O)c2ccco2)c1,-7.1,-24.7,45.4,8.4,-0.2,-19.3
CCNC(=O)N(C)c1c(CC)nc2ccc(C(=O)Nc3cccc(OCC(=O)N(C)C)c3)cn12,-7.9,-23.7,56.5,nt,-0.7,0.9
COc1ccc(C)cc1NC(=O)C1CCCCC1C(=O)O (stereo not drawn),-2.9,5.2,2.2,-0.2,-0.2,0.6
FC(F)(F)c1cccnc1N1CCN(c2ncnc3nc[nH]c23)CC1,2.7,2.1,8.0,-9.5,-0.9,3.7
Cn1c(SCC(=O)Nc2cccc(NC(=O)c3cccs3)c2)nnc1-c1ccncc1,-11.3,19.5,-11.3,21.5,2.2,13.8
Cc1ccc(Nc2nc(N)nc(CSc3nccn3C)n2)cc1,8.8,-2.3,2.8,9.3,-0.6,-1.2
Cn1ccnc1SCC(=O)Nc1cccc(S(=O)(=O)N2CCCCCC2)c1,-5.8,0.0,-1.7,-4.6,-0.1,-4.3
C#CCOc1ccc(C2C3=C(CC(C)(C)CC3=O)N(CC(=O)O)C3=C2C(=O)CC(C)(C)C3)cc1,3.3,6.0,15.4,-3.7,-0.5,3.4
Cc1ccc2c(c1)N(S(=O)(=O)c1cc(-c3cc(C)no3)ccc1C)CCO2,-11.8,nt,-10.0,-2.6,0.0,5.1
c1cnc2ccc(C(c3nnnn3C3CCCCC3)N3CCCCC3)cc2c1 (stereo not drawn),-17.9,1.3,8.8,-16.1,-0.8,0.1
Cc1ccc2nc(SCC(=O)Nc3ccccc3N3CCOCC3)c(C#N)cc2c1,-0.4,-1.7,14.9,-6.5,6.9,-1.3
CC(C)OCc1c(C(=O)OC/C(O)=C(\C#N)c2nc3ccccc3[nH]2)oc2ccccc12,-2.9,-2.2,-17.6,9.8,0.0,-1.0
COc1ccc(C2c3ccc(O)cc3Oc3ncn4nc(-c5ccccn5)nc4c32)cc1OC (stereo not drawn),-1.3,?,-10.4,8.7,1.3,?
COc1ccc(C(C)=O)cc1COC(=O)CNC(=O)c1cc(C)cc(C)c1,-2.5,5.8,3.4,24.2,0.8,0.8
CC(C)CC(=O)Nc1cccc(-c2cn3ccsc3n2)c1,-4.1,1.1,-8.8,-10.2,0.5,6.1
O=C(CCNC(=O)c1ccccc1)NCCc1ccc(Cl)cc1,3.1,6.8,1.8,5.8,0.1,4.0
CCOCCn1ccc2c(OCC(=O)Nc3ccc(OC)c(OC)c3)cccc2c1=O,-1.6,-0.2,-3.1,-12.9,-0.4,-4.6
O=C(Nc1ccc(O)cc1C(=O)O)c1cccc(Br)c1,1.5,-17.4,-4.1,-17.3,4.8,-13.4
O=C(COc1ccc(Cl)cc1Cl)N(C1CCCCC1)C1CCS(=O)(=O)C1 (stereo not drawn),17.4,-2.6,0.4,12.4,1.3,-1.5
O=C(COC(=O)Cn1[nH]c(=O)c2ccccc2c1=O)NNC(=O)c1ccccc1,-4.9,0.3,0.3,16.3,0.9,0.9
CCN1CCN(C(c2cccs2)C(C)NC(=O)NC2CCCCC2)CC1 (stereo not drawn),1.0,4.6,-1.7,7.6,-0.2,3.4
C[C@@H](C(=O)NCc1ccccn1)[C@H]1C[C@]1(C)[C@H](NC(=O)OCc1ccccc1)c1ccccc1,-4.0,-18.6,-21.5,-6.3,0.6,-16.7
COc1ccc(-c2[nH]ncc2CN2CCCC(C(=O)c3cccc(OC)c3)C2)cc1 (stereo not drawn),-12.8,-0.5,-4.9,9.7,-0.2,-2.2
Cc1ccc(NC(=O)CC2C(=O)NCCN2C(=S)Nc2ccccc2)c(C)c1 (stereo not drawn),-11.7,0.0,2.4,-9.1,0.8,21.5
COCCNC(=S)N/N=C(\C)c1ccc2cc(OC)ccc2c1,-4.5,-25.0,-1.8,5.7,1.6,?

New compounds follow:
Structure,D2 PAM,CtBP-E1A inh,TRPML1 blocker,TRPV1 potentiator,TRPML1 agonist,Six1-Eya2 blk
CCCC[C@@H]1C[C@H]1[C@@H](NC(=O)c1ccco1)c1ccc(C(=O)OC)cc1,-7.3,-2.8,3.6,nt,0.0,-8.9
Cc1[nH]c2ccccc2c1C(c1ccccn1)N1CCC(C)CC1 (stereo not drawn),-13.3,-2.1,-16.5,-3.5,0.2,-3.4
CCCCC(CCc1ccccn1)C(=O)c1ccccc1 (stereo not drawn),-16.1,32.5,-3.0,nt,2.6,19.0
COc1cc(NC(=O)CCn2c(=S)[nH]c3ccccc3c2=O)cc(OC)c1OC,-1.8,0.6,-4.4,nt,-0.7,3.0
O=C(CCN=C1NS(=O)(=O)c2ccccc21)OCc1nnc(-c2ccc([N+](=O)[O-])cc2)o1,68.7*,-0.9,25.9,nt,-0.1,-3.3
N#CCSc1nnc2sc3ccccc3n12,-5.6,-15.1,26.1,nt,-0.4,-17.9
Cc1nc(NC(=O)CSc2nccn2C)sc1C(=O)N(C)C,5.9,3.6,8.9,-1.5,-0.2,3.9

Full records, quoted from the list.
Listed for CCCCC(CCc1ccccn1)C(=O)c1ccccc1 (stereo not drawn) = D2 PAM: -16.1; CtBP-E1A inh: 32.5; TRPML1 blocker: -3.0; TRPV1 potentiator: nt; TRPML1 agonist: 2.6; Six1-Eya2 blk: 19.0
Listed for Cc1[nH]c2ccccc2c1C(c1ccccn1)N1CCC(C)CC1 (stereo not drawn) = D2 PAM: -13.3; CtBP-E1A inh: -2.1; TRPML1 blocker: -16.5; TRPV1 potentiator: -3.5; TRPML1 agonist: 0.2; Six1-Eya2 blk: -3.4
